From PubChem BioAssay
MITF inh = inhibitors of MITF, primary screen, MITF inhibitor project, cell-based, luminescence. inhibition, % (no concentration beside the values). AID 2240, 2010. TRPM1 promoter luciferase, 24 h. actives 0.28% (n = 37,000);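 active = most replicates at 85% or more, or half of them and the mean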;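 also: human melanocyte line stably carrying TRPM1 promoter luciferase reporter; 0% = vehicle wells and 100% = a positive control; the first replicate is given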
* marks the source's active call; other numbers are inactive results.

SMILES	MITF inh
CS(=O)(=O)N(CC(=O)Nc1ccc2c(c1)OCCO2)C1CCCCC1	-9.3
Nc1cc(=O)[nH]c(SCC(=O)N2CCN(c3ccccc3)CC2)n1	4.8
OC(COc1ccc2ccccc2c1Br)Cn1cnc(-c2ccccc2)c1 (stereo not given)	3.4
O=C(CSc1nc2ccccc2[nH]1)Nc1cccc(Cl)c1Cl	1.0
N#Cc1cnc(SCC(=O)Nc2ccccc2F)nc1N	-24.7
COC(=O)c1ccccc1-n1c(CCC(=O)O)ccc1-c1ccccc1	-0.4
COc1ccc(C(=O)CSc2n[nH]c(C)n2)cc1[N+](=O)[O-]	0.8
COc1cc(OC)cc(-c2nnc(SCC(=O)Nc3cccc(Cl)c3Cl)o2)c1	-8.0
O=C(CC1NC2CCCCC2NC1=O)Nc1ccccc1 (stereo not given)	4.8
Cc1cc(S(=O)(=O)NC2CCCCC2)ccc1OCC(=O)O	3.6
CCc1ccc(CCC(=O)Nc2ccc(I)cc2)o1	-48.7
COc1ccc(NC(=O)CN(c2cccc(F)c2)S(C)(=O)=O)cc1OC	-22.7
CCOc1ccc(Br)cc1C(=O)NCCc1c[nH]c2ccccc12	5.7
Cc1ccc(O)c(NC(=O)CCCC(=O)O)c1	-12.0
O=C(CSc1nc2ccccc2c(=O)[nH]1)Nc1ccc(Br)c(Cl)c1	6.2
O=C(O)CCc1nn2cnc3sc4c(c3c2nc1=O)CCCC4	13.3
CN(C)S(=O)(=O)N1CCN(CC(=O)Nc2ccc(F)cc2)CC1	3.9
COC(=O)c1ccccc1NC(=O)C1CC(c2cc(Cl)c(OC)cc2OC)=NO1 (stereo not given)	28.6
CN1C(=O)C(CC(=O)Nc2ccc(F)cc2)N(Cc2ccco2)C1=S (stereo not given)	-1.5
CC(O)c1cccc(NC(=O)C2C3C=CC(C3)C2C(=O)O)c1 (stereo not given)	-58.1
Cc1onc(-c2ccccc2Cl)c1C(=O)NCCc1ccc(S(N)(=O)=O)cc1	-14.8
O=C(CSc1nccc(=O)[nH]1)Nc1cccc(I)c1	1.1
COc1cc(S(=O)(=O)NCc2ccco2)ccc1Br	-12.2
CCn1c(SCC(=O)Nc2ccc3c(c2)OCCO3)nnc1-c1cccnc1	0.6
Cc1nc(C)c(C(=O)C2C(=O)C(=O)N(CCN3CCOCC3)C2c2cccs2)s1 (stereo not given)	-14.0
Cc1ccn2c(-c3csc(NCc4ccco4)n3)c(C)nc2c1	16.3
Cc1ccc2nc(NCCCO)[nH]c2c1	-4.6
CCN(CC(=O)Nc1ccc2c(c1)OCCO2)S(=O)(=O)c1ccc(C)cc1	1.5
COc1ccc(CNc2nc3nc(-c4ccccc4)cc(=O)n3[nH]2)cc1OC	4.0
CN(Cc1nc(-c2ccccc2)no1)S(=O)(=O)c1ccc(Br)cc1	-9.6
COC(=O)CSc1nc(C)cc(C)n1	-2.3
CCc1ccc(OCC(=O)Nc2cccc3ncccc23)cc1	-8.3
COc1ccc(C)cc1NC(=O)CSc1nc(C)cc(-c2ccccc2)n1	1.3
Cc1c(C(=O)C2C(=O)C(=O)N(Cc3cccnc3)C2c2cccs2)cnn1-c1ccccc1 (stereo not given)	-96.4
O=C(Nc1ccccc1)c1ccc(NCC2CCCO2)c(S(=O)(=O)N2CCOCC2)c1 (stereo not given)	-0.7
COc1ccc(OC(C)c2nc(-c3cccnc3)no2)cc1 (stereo not given)	-6.6
CC(=O)Cc1ccccc1OCC(=O)O	5.4
O=C(NCc1ccco1)c1cc(-c2cccc(Cl)c2)nc2ccccc12	5.0
COC(=O)c1cccc(NC(=O)CN(c2ccc(F)cc2)S(C)(=O)=O)c1C	5.5
CCN(CC)CCSc1nnc2c3ccccc3n(CC)c2n1	7.6
COc1cc(C(=O)NCc2ccccn2)c([N+](=O)[O-])cc1OC	-0.1
CCOC(=O)c1c(NC(=O)C2CC(c3ccccc3O)=NO2)sc2c1CCCC2 (stereo not given)	6.4
CCOc1ccccc1C(=O)Oc1c(S(=O)(=O)c2ccc(C)cc2)c(C)nn1-c1ccccc1	33.4
COC(=O)CCSc1nc(SC)nc2sc3c(c12)CC(C)(C)OC3	-120.3
O=C(OCc1cccc([N+](=O)[O-])c1)c1ccc(NC(=O)c2ccco2)cc1	-25.5

4 entries from above, field by field:
Cc1c(C(=O)C2C(=O)C(=O)N(Cc3cccnc3)C2c2cccs2)cnn1-c1ccccc1 (stereo not given)
  MITF inh = -96.4

O=C(Nc1ccccc1)c1ccc(NCC2CCCO2)c(S(=O)(=O)N2CCOCC2)c1 (stereo not given)
  MITF inh = -0.7

COc1ccc(OC(C)c2nc(-c3cccnc3)no2)cc1 (stereo not given)
  MITF inh = -6.6

CC(=O)Cc1ccccc1OCC(=O)O
  MITF inh = 5.4

Next section.
SMILES	MITF inh
N#Cc1c(NC(=O)Cn2cnc3ccccc3c2=O)sc2c1CCC2	-12.6
CC(=O)Nc1ccc(OCC(O)Cn2nc(C)c(Br)c2C)cc1 (stereo not given)	3.7
CCOc1cc(S(=O)(=O)NCc2ccco2)ccc1Cl	-10.1
COc1ccc2c(c1)c(=O)oc1c(C)c(OCC(=O)NCC3CCCO3)ccc12 (stereo not given)	-75.1
COC(=O)Nc1sc2c(c1C(=O)NCc1ccco1)CCCC2	-1.2
Cc1ccnc(NS(=O)(=O)c2ccc(NC(=O)c3ccc(Cl)cc3Cl)cc2)n1	-2.4
Nc1nc(SCC(=O)Nc2ccc(F)cc2)n[nH]1	-0.3
COC(=O)c1ccccc1NC(=O)c1cccc(NC(=O)COc2cc(C)c(Cl)c(C)c2)c1C	45.2
Cn1c(SCC(=O)Nc2ccc(Br)cc2Cl)nnc1-c1cccc([N+](=O)[O-])c1	-11.2
CC1(C)Cc2c(sc3nc(SCc4ccccc4)nc(NCc4ccco4)c23)CO1	-6.3
COc1ccc(CC(=O)Nc2ccc(O)cc2C(=O)O)cc1OC	-28.1
COc1ccc(S(=O)(=O)N(C)CC(=O)Nc2c(C)cc(C)cc2C)cc1	8.1
COc1ccc(-c2oc(NC(=O)Cc3ccc(OC)c(OC)c3)c(C#N)c2-c2ccc(OC)cc2)cc1	-3.2
Cc1nn(-c2nnc(C)c(=O)[nH]2)c(C)c1SCC(=O)Nc1ccc(F)cc1	-4.8
COc1cc(NC(=O)C(C)Oc2ccc(Cl)cc2Cl)c(OC)cc1Cl (stereo not given)	-17.7
Cc1nc2ccc(NC(=S)NCCCO)cc2nc1C	-62.4
CCOc1ccc2[nH]c(C)c(CCC(C)=O)c(=O)c2c1	-16.3
CCOc1ccccc1NC(=O)C1C(C(=O)O)C2C=CC1C21CC1 (stereo not given)	2.8
Cc1ccc(OCC(=O)Nc2cccc(C(=O)O)c2)c(Br)c1	86.6*
CC1(C)Cc2c(sc3c2c(=O)n(-c2cccc(Cl)c2)c2nnc(SCC(=O)Nc4cccc(Cl)c4)n32)CO1	5.7
CC(=O)Nc1ccc(-n2c(CCC(=O)O)ccc2-c2ccc(C)cc2)cc1	0.0
CCOc1ccc(NC(=O)C(C)Sc2nnnn2C)cc1 (stereo not given)	-50.7
O=C(Cn1nnc2ccccc21)c1ccc([N+](=O)[O-])cc1	-53.9
Cn1c(SCC(=O)Nc2ccc(C(=O)O)cc2)nnc1-c1ccc(Br)cc1	-5.0
O=S(=O)(NC1CCCCC1Sc1nnc(Nc2ccccc2)s1)c1ccccc1 (stereo not given)	14.9
CC(=O)c1ccc(NC(=O)C(C)N2C(=O)C3C4C=CC(C5CC45)C3C2=O)cc1 (stereo not given)	-50.5
O=C(CSc1nc2ccccc2c(=O)n1-c1ccccc1)Nc1cccc([N+](=O)[O-])c1	0.8
Cc1ccc2nc(-c3cccnc3)cc(C(=O)NCc3cnn(C)c3)c2c1	-8.2
CCn1c(SCC(=O)Nc2ccc(C)cc2)nnc1-c1ccc(N)cc1	-1.1
Cc1c(C(=O)N(C)C)sc(NC(=O)c2cc(-c3ccccn3)nc3ccc(Cl)cc23)c1C#N	22.1
COCc1nc2ccccc2n1CCOc1ccc(Cl)cc1Cl	6.3
CC(=O)Nc1ccc(NC(=O)CN(C)S(=O)(=O)c2ccc(Cl)cc2)cc1	7.7
CCOc1ccc(C)cc1S(=O)(=O)Nc1ccc(Cl)cn1	-31.6
CNC(=O)CN(c1cc(Cl)c(Cl)cc1Cl)S(C)(=O)=O	-10.8
Cc1ccccc1NS(=O)(=O)c1ccc(Cl)c(C(=O)Nc2ccccc2C(=O)O)c1	10.3
O=[N+]([O-])c1ccc(NCCNCCO)cc1	-22.6
Cc1nn(Cc2ccc(F)cc2)c(C)c1NC(=O)c1cc(-c2cccnc2)nc2c(Cl)cccc12	33.6
N#Cc1c(NC(=O)CCn2cnc3ccccc3c2=O)sc2c1CCC2	-21.1
COc1ccc(OC)c(NC(=O)c2ccccc2N(C)S(=O)(=O)c2ccc(C)cc2)c1	-5.3
Cc1nc2ccccn2c1-c1csc(NCc2ccco2)n1	16.3
COc1ccc(C)cc1NC(=O)CN(c1cccc2ccccc12)S(C)(=O)=O	-10.8
CC(=O)C(Sc1nc(N(C)C)nc(N(C)C)n1)C(=O)Nc1ccccc1 (stereo not given)	-1.3
CNC(=O)C(C)N(c1cc(C)cc(C)c1)S(C)(=O)=O (stereo not given)	-13.5
COc1cccc2c(C)nc(Nc3nc(CSc4nnc(C)s4)cc(=O)[nH]3)nc12	12.3
Cc1ccc(-c2noc(CSc3nnc(-c4ccncc4)n3-c3ccc(C)cc3)n2)cc1	16.8

Next section, overlapping the part above by six compounds.
SMILES	MITF inh
Cc1nc2ccccn2c1-c1csc(NCc2ccco2)n1	16.3
COc1ccc(C)cc1NC(=O)CN(c1cccc2ccccc12)S(C)(=O)=O	-10.8
CC(=O)C(Sc1nc(N(C)C)nc(N(C)C)n1)C(=O)Nc1ccccc1 (stereo not given)	-1.3
CNC(=O)C(C)N(c1cc(C)cc(C)c1)S(C)(=O)=O (stereo not given)	-13.5
COc1cccc2c(C)nc(Nc3nc(CSc4nnc(C)s4)cc(=O)[nH]3)nc12	12.3
Cc1ccc(-c2noc(CSc3nnc(-c4ccncc4)n3-c3ccc(C)cc3)n2)cc1	16.8
CCn1c(SCC(=O)c2ccc(OC)cc2)nnc1-c1ccc(Cl)cc1Cl	17.1
CCNC(=O)c1c(NC(=O)COc2cccc3ccccc23)sc2c1CCCC2	5.7
Cc1ccc(NC(=O)CSc2ncccn2)cc1Cl	-47.0
Nc1nc(SCC(=O)N2CCC(c3noc4ccc(F)cc34)CC2)n[nH]1	-32.4
CC(C)(C)c1ccc(S(=O)(=O)CCSc2nc3ccccc3o2)cc1	44.9
O=C(CCSc1nc2ccccc2s1)Nc1ccccc1Cl	86.2*
CCN(CC(=O)Nc1ccc(Br)cc1)S(=O)(=O)c1ccc(Cl)cc1	-0.5
O=S(=O)(NC1c2cccc3cccc(c23)C1Sc1ncccn1)c1ccccc1 (stereo not given)	6.3
CCOC(=O)Cc1[nH]nc2c1C(C1CC=CCC1)C(C#N)=C(N)O2 (stereo not given)	15.7
CCc1cccc(C)c1NC(=O)CSc1nc2sc3c(c2c(=O)n1C)CCC(C)C3 (stereo not given)	7.1
Cc1ccc(C(C)C)c(OCC(=O)Nc2ccccc2N2CCN(C)CC2)c1	6.4
COc1ccc(C(=O)c2oc3ccccc3c2NC(=O)COc2ccc(F)cc2)cc1	36.3
COc1ccc(NC(=O)CS(=O)(=O)c2ccc(C)cc2)c(OC)c1	-6.9
CC1CCN(S(=O)(=O)c2ccc(NC(=O)CN3CCOCC3)cc2)CC1	-0.9
Cc1nn(CC(=O)Nc2ccc3c(c2)nc(CN2CCCC2)n3C)c(=O)c2ccccc12	-7.1
Cc1cccc(NC(=O)CN(c2ccc3c(c2)OCCO3)S(C)(=O)=O)c1	-37.3
COc1ccccc1NC(=O)C1CCCN(S(=O)(=O)c2cc(Cl)ccc2Cl)C1 (stereo not given)	13.4
NS(=O)(=O)c1ccc(NC(=O)CSc2nc3ccccc3[nH]2)cc1	-11.1
CCOC(=O)c1sc(N2C(=O)C(=O)C(C(=O)c3ccc(C)cc3)C2c2ccc(C)o2)nc1C (stereo not given)	-34.7
Cc1ccc(C(=O)N(CC(N)=O)CC(N)=O)cc1	-11.6
COc1ccc(C(=O)Nc2ccc(C(=O)NCc3ccco3)cc2)cc1	-1.8
CC1=C(C(=O)Nc2ccccc2C)C(c2cccnc2)n2nc(CCCO)nc2N1 (stereo not given)	-3.2
O=C(O)CCC(=O)Nc1ccc(Br)cc1C(=O)c1ccc(Cl)cc1	9.8
O=C(CSC1CC(=O)N(c2ccccc2)C1=O)Nc1cccc(Cl)c1 (stereo not given)	-4.9
Cc1cc(C(=O)CSc2nnnn2-c2ccccc2)c(C)n1-c1cc(F)ccc1F	7.1
CS(=O)(=O)N(CC(=O)Nc1cc(Cl)ccc1Cl)c1ccc2c(c1)OCCO2	12.6
CNC(=O)CN(c1ccc(C23CC4CC(CC(C4)C2)C3)cc1)S(C)(=O)=O	-6.5
O=C(O)c1cccc(CSc2nnc(-c3ccncc3)o2)c1	-21.9
CSc1ccccc1NC(=O)C(C)NS(=O)(=O)c1ccc(C)cc1 (stereo not given)	-5.5
COc1ccc(NC(=O)CNC(=O)c2ccccc2F)cc1Cl	-13.8
Cc1c(Cl)ccc2c(C(=O)NCCCn3nccc3C)cc(-c3ccccn3)nc12	-0.7
COc1ccccc1CNC(=O)c1ccc(NS(C)(=O)=O)cc1	-17.3
Cc1ccc(S(=O)(=O)N2C(=O)CCC2C(=O)Nc2ccc(Cl)c(C(F)(F)F)c2)cc1 (stereo not given)	-13.9
Nc1nonc1-c1nc2ccccc2n1CC(=O)Nc1cccc(Cl)c1Cl	31.7
O=C(Nc1ccc(S(=O)(=O)Nc2ncccn2)cc1)c1cccc(I)c1	-7.4

Shown as labelled records: part of the list above.
Cc1ccc(S(=O)(=O)N2C(=O)CCC2C(=O)Nc2ccc(Cl)c(C(F)(F)F)c2)cc1 (stereo not given)
- MITF inh: -13.9

COc1ccccc1CNC(=O)c1ccc(NS(C)(=O)=O)cc1
- MITF inh: -17.3

Cc1c(Cl)ccc2c(C(=O)NCCCn3nccc3C)cc(-c3ccccn3)nc12
- MITF inh: -0.7

O=C(Nc1ccc(S(=O)(=O)Nc2ncccn2)cc1)c1cccc(I)c1
- MITF inh: -7.4

This is a subset; the hit share may differ from the screen's.
